Assay outcomes as filed in PubChem BioAssay.
TRPML1 blocker: blocks the human TRPML1 channel; AID 624415; activity change, negative = inhibition, % (concentration not given with the values); 390,000 compounds, 0.02% hits; TRPML1-inducible cells, Ca2+ dye fluorescence, FDSS; active compounds read low; inhibition of EC80 agonist-evoked calcium signal; in the data active means activity change below about -50%; inconclusive means about -30% to -50%; inactive means above about -30%;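 also: stimulus is agonist 54-4 at its EC80 concentration; % is scaled to controls: 0 for no effect and ±100 for the full control effect; the text of the record puts the active cut at -80%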
Target sequence (Q9GZU1 whole entry, looked up): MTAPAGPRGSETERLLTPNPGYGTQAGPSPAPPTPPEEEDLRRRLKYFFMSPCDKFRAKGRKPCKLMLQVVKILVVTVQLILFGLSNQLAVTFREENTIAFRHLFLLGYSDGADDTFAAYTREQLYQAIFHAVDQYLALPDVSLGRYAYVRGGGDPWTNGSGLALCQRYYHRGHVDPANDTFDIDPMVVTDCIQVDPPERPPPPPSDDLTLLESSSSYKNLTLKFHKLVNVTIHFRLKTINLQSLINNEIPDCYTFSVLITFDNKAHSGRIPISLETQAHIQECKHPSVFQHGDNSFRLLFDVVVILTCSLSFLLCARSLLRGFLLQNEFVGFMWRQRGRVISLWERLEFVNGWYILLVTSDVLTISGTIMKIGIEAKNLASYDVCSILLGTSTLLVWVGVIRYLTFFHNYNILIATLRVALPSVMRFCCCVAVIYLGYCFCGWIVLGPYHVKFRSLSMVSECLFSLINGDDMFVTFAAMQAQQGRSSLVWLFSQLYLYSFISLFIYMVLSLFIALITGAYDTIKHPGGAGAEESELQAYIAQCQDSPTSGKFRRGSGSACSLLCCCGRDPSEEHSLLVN
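Calcium fluorescence in TRPML1-DL cells induced overnight with Tet: a 110 s read after compound pin addition, then a 110 s antagonist read after challenge with 54-4 at 4 uM final (EC80).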
D2 ag: human D2 receptor agonism in beta-arrestin assay; P14416; DiscoveRx PathHunter D2 beta-arrestin, luminescence, 90 min; 100% = 57 uM dopamine signal; activation, % (test concentration not listed); 360,000 compounds, 0.084% hits; in the data active = activation above about 40%; inconclusive = about 15% to 40%; inactive = below about 15%; also: compound concentration not given in the record; the text of the record calls up to 30% inactive
Target sequence (P14416 whole entry, looked up): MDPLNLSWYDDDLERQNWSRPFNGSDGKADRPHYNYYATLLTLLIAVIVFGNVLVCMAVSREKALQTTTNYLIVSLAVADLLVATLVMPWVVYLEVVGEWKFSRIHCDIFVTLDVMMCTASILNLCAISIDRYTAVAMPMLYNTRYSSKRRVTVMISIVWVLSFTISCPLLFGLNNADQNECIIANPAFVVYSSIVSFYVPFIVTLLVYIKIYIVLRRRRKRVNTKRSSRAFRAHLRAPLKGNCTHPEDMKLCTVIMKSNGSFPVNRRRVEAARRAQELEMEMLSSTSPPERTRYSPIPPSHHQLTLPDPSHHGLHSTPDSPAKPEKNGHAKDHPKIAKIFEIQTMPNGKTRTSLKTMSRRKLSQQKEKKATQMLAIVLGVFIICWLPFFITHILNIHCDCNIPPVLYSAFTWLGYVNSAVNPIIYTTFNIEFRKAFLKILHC
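Agonist mode: compounds alone added to overnight-plated D2 PathHunter cells for 90 min at 37 C, with 57 uM final dopamine (EC100) defining full response. Beta-arrestin recruitment detected by chemiluminescent reagent, read after 1 h at ambient temperature.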
Six1-Eya2 inh: blocks human Six1 binding to Eya2; Q15475+O00167; AID 651725; AlphaScreen GST-Six1/His-Eya2 binding, biochemical; active compounds read low; control for the full effect not named in the record; activity change, % (no concentration beside the values); 360,000 compounds, 0.56% hits; in the data active = activity change below about -65%; inconclusive = about -30% to -65%; inactive = above about -30%; also: % is scaled to controls: 0 for no effect and ±100 for the full control effect
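AlphaScreen with GST-Six1 and His-Eya2 (5X mix: 250 nM and 500 nM), glutathione donor and nickel acceptor beads; buffer 50 mM Tris pH 8.0, 300 mM NaCl, 1 mM TCEP; 1 h at 37 C in the dark.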
PINK1 modulator: changes PINK1 expression. PINK1 immunofluorescence, high-content cytometry, 24 h. Potency, µM (doses to about 76.6 µM), without a hit: at the highest dose activation (PINK1 increase), actives largely listed as activators. 410,000 compounds, 0.2% hits; active = well fitted activation curve with a large enough effect; inconclusive = small, poorly fitted or top-dose-only effect; inactive = flat fitted curve, though single readings scatter; cell line not stated here;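 also: potency is read from the fitted curve at half-maximal effect; % of control where 0% means no effect; nearly all actives have a fitted effect of over 65% in size; a mitochondrial uncoupler was the plate control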
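Readout is PINK1 immunofluorescence, quantified alongside mitochondrial, cell and nuclear markers by laser-scanning microplate cytometry. Cells from a stable line were exposed to compound titrations (5 concentrations) for 24 hours, with CCCP controls.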
TRPML1 agonist: activates the human TRPML1 channel; Q9GZU1; TRPML1-expressing cells, Ca2+ dye fluorescence, FDSS; host cell line not named in the record; reference of the full effect not given here; activation, % (no concentration beside the values); 410,000 compounds, 0.12% hits; in the data active = activation above about 50%; inconclusive = about 30% to 50%; inactive = below about 30%; also: 0% is about no effect; the text of the record puts the active cut at 80%
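Agonist activity was taken from a 110 s kinetic Ca2+ dye read on the FDSS after pinning compounds onto TRPML1-DL cells. The cells were seeded at 1,500/well with Tet inducer, incubated about 16 h, then dye-loaded at room temperature.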
CtBP-E1A blk: CtBP/E1A binding inhibition. AlphaScreen GST-E1A/His-CtBP binding, 1536-well; active compounds read low; control for the full effect not named in the record. 340,000 compounds, 0.49% hits. activity change, % (concentration not given with the values); in the data active means activity change below about -65%; inconclusive means about -30% to -65%; inactive means above about -30%; also: % is scaled to controls: 0 for no effect and ±100 for the full control effect
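In 5 uL wells, 23 nL compound meets equimolar GST-E1A and His-CtBP (5X stock 125 nM each) for 2 h, 37 °C. Beads (5X, 50 ug/mL) then 1 h, 37 °C, dark.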
An asterisk follows results filed as active; u = inconclusive; x = no result given; [ ] = another dose, or the depositor's remark.

SMILES	TRPML1 blocker	D2 ag	Six1-Eya2 inh	PINK1 modulator	TRPML1 agonist	CtBP-E1A blk
O=C(CCS(=O)(=O)c1ccccc1)Nc1nnc(C(F)(F)F)s1	20.2	3.8	-5.4	0.4%	0.3	4.4
COCCN(C(=O)CSc1nnc(-c2ccccc2OC)o1)c1c(N)n(CC(C)C)c(=O)[nH]c1=O	-2.2	-1.3	-1.5	1.4%	-0.3	6.9
CC(=O)c1cccc(NC(=O)C2CCN(C(=O)c3ccc([N+](=O)[O-])cc3)CC2)c1	10.4	4.5	2.0	-1.5%	0.5	x
COC(=O)CNC(=O)Nc1cc(C(=O)NCc2ccc(C)cc2)ccc1N1CCCC1	0.5	x	x	1.1%	-0.6	x
COC1OC(CO)C(N(C)C(C)=O)C1O (stereo not drawn)	30.4	-3.5	5.7	-0.8%	0.0	-17.9
COc1ccccc1C(=O)NCc1ccc2c(c1)CCN2C(=O)c1cccc(C)c1	-25.1	x	x	2.2%	0.0	x
COc1ccc(C(=O)NC(CC(=O)O)c2cc([N+](=O)[O-])ccc2Cl)cc1 (stereo not drawn)	5.3	-4.2	7.2	1.9%	0.0	-8.0
Cc1oncc1-c1csc(-c2ccccc2Cl)n1	-15.9	2.7	37.9	-0.6%	1.7	-2.3
Cc1cn([C@H]2C[C@H](O)[C@@H](CNC/C=C/c3ccccc3[N+](=O)[O-])O2)c(=O)[nH]c1=O	x	0.8	-1.4	-0.5%	x	0.0
CCC(=O)N1CCc2cc(S(=O)(=O)N3CCN(c4cc(C)ccc4C)CC3)ccc21	17.3	-0.8	4.0	1.9%	-1.1	4.9
COc1cccc(NC(=O)c2c(C(=O)Nc3ccccc3)sc3nc(C)cc(=O)n23)c1	-13.6	x	x	u	0.2	x
CN1CC(=O)N(CC(=O)Nc2ccc(OCc3ccccc3)cc2)C1=O	-8.6	2.4	14.2	-0.9%	-0.2	-18.7

Whole records, quoted from the list. Values in the order: TRPML1 blocker | D2 ag | Six1-Eya2 inh | PINK1 modulator | TRPML1 agonist | CtBP-E1A blk
`Cc1oncc1-c1csc(-c2ccccc2Cl)n1` in the list: -15.9 | 2.7 | 37.9 | -0.6% | 1.7 | -2.3
`COCCN(C(=O)CSc1nnc(-c2ccccc2OC)o1)c1c(N)n(CC(C)C)c(=O)[nH]c1=O` in the list: -2.2 | -1.3 | -1.5 | 1.4% | -0.3 | 6.9
`COC1OC(CO)C(N(C)C(C)=O)C1O` (stereo not drawn) in the list: 30.4 | -3.5 | 5.7 | -0.8% | 0.0 | -17.9
`COc1cccc(NC(=O)c2c(C(=O)Nc3ccccc3)sc3nc(C)cc(=O)n23)c1` in the list: -13.6 | x | x | u | 0.2 | x

Further results
SMILES	TRPML1 blocker	D2 ag	Six1-Eya2 inh	PINK1 modulator	TRPML1 agonist	CtBP-E1A blk
CC(=O)c1cccc(NC(=O)Cn2cc3c(n2)CCCC3)c1	18.9	-3.0	0.4	0.9%	1.4	4.5
O=C1NC[C@H](Cc2ccc(O)cc2)N(CC2CCCCC2)C1=O	-12.7	-2.2	5.4	-0.2%	-0.1	x
COc1ccc(S(=O)(=O)N2CCCCC2)cc1NC(=O)c1ccc2ccccc2n1	13.8	0.0	-10.5	-0.1%	-0.2	-7.7
COc1ccc(N2CCN(CC(=O)Nc3nnc(-c4ccccc4)s3)CC2)cc1	-0.5	-0.3	-14.0	6.5%	0.9	-16.7
Cc1nnc(NCCc2ccccc2)[nH]c1=O	-6.8	-1.0	3.9	-2.8%	0.1	-0.8
O=C(NCCOC(=O)C1COc2ccccc2O1)c1cccnc1 (stereo not drawn)	3.2	2.3	12.7	-0.9%	1.0	8.4
CCOC(=O)c1c(NC(=O)c2cc(-c3cccc(Cl)c3)on2)sc(C(C)=O)c1C	14.7	x	x	0.1%	0.0	x
COc1cc(NC(=O)c2cccs2)ccc1NC(=O)Cc1ccccc1	-12.3	-3.3	-14.5	-1.0%	0.0	-12.6
CCOC(=O)c1cccc(NC(=O)CCCn2nc(C)c3c(C)n(-c4ccccc4)nc3c2=O)c1	37.0	x	x	0.0%	2.8	x
COc1ccccc1C1C2=C(CC(C)(C)CC2=O)N(CC(=O)O)C2=C1C(=O)CC(C)(C)C2	-13.8	-2.1	0.2	1.4%	1.0	13.7
Cc1ccc(C)c(NC(=S)NNC(=O)c2csc(C)c2)c1	-26.6	-9.7	-1.2	-0.9%	-0.3	-3.9
CCOC(=O)c1sc(NC(=O)CCC(=O)O)nc1C	40.5	2.8	-2.3	-0.4%	1.0	3.8
CC1(C(=O)NCc2cccc3ccccc23)CCN1Cc1ccc(OC(F)(F)F)cc1 (stereo not drawn)	x	-6.2	1.8	0.6%	2.6	3.1
C#CCOCCOCCOCCNc1nc(N2CCN(C(=O)[C@H](CCCCN)n3cc(CN)nn3)CC2)nc(N2CCN(C(=O)[C@H](CCCCN)n3cc(CN)nn3)CC2)n1	4.4	-5.4	-1.5	5.4%	0.0	-0.5
Cc1ccc(S(=O)(=O)NCCc2csc(-c3cccc(F)c3)n2)cc1	u	x	x	14.9%	2.5	x
CCc1ccc(Nc2nnc(SCC(=O)N(C)CC(=O)Nc3ccccc3CC)s2)cc1	-1.8	-4.2	-13.4	-0.1%	4.8	4.6
COC(=O)C1CN(S(=O)(=O)c2ccc(NC(C)=O)cc2)CCS1 (stereo not drawn)	24.3	-2.2	-2.2	1.2%	0.4	10.0
Cc1cc(-c2c(C)n([O-])c(C)c(C)[n+]2=O)ccc1F	17.8	0.3	5.3	-1.8%	2.5	0.5
CCOc1cc(CNc2ncc(-c3ccc(OC)cc3)n2C)ccc1O	8.0	0.7	-14.8	3.8%[38.3 µM]	-0.6	-21.3
Cc1nn(CC#N)c(=O)n1N(C)c1ncc(C(F)(F)F)cc1Cl	45.2	2.7	3.5	5.0%	0.2	-11.3
CCN1CCN(S(=O)(=O)c2ccc(Cl)c(C(=O)NC(C)(C)C)c2)CC1	-23.2	-4.8	1.3	1.6%	-0.5	-0.2
O=C(COC(=O)/C=C/c1ccccc1Cl)NC1CC1	-11.8	-1.8	8.7	-0.6%	-0.6	0.0
COc1cc(Cn2c3ccc(NC(=O)CC(C)C(F)(F)F)cc3c(=O)n2C)ccc1F (stereo not drawn)	-2.7	1.5	0.3	0.1%	0.2	8.4
O=C(CN(C(=O)c1csnn1)c1ccccc1)NCCc1ccccc1	2.6	3.9	3.4	-0.2%	0.4	5.0
Oc1oc(-c2cccc3ccccc23)nc1/C=N/c1nccs1	-8.5	-3.6	1.7	6.2%	18.1	1.5
O=C1C2CC=CCC2C(=O)N1c1cccc(OS(=O)(=O)c2ccc3ccccc3c2)c1 (stereo not drawn)	7.4	0.2	-2.9	13.3%[38.3 µM]	-0.4	-1.5
COc1cccc(C(C)(O)c2nc(-c3ccc(N(C)C)cc3)cs2)c1 (stereo not drawn)	x	5.0	u	7.5%	-0.5	u
COC(=O)c1ccc(/C=C2\CCn3c2nc2cc(C(=O)O)ccc2c3=O)cc1	4.6	-1.6	-66.1*	-2.0%	-0.6	u
Nc1nc(SCC(=O)N2CCCCC2)[nH]c(=O)c1NC(=O)c1ccccc1F	7.0	-3.1	-4.6	0.4%	-0.1	3.3
COc1cc(OC)c(C(=O)NC2CCCc3ccccc32)cc1OC (stereo not drawn)	4.0	0.6	5.4	3.2%	2.1	-0.2
Cc1cccc2cc(CN(Cc3cccs3)C(=S)NCc3ccco3)c(=O)[nH]c12	17.5	0.3	-9.6	-2.1%	-0.2	-4.4
O=C(NC1CS(=O)(=O)CC1NCc1ccccc1)c1ccccc1 (stereo not drawn)	-0.7	-3.6	0.4	0.9%	0.1	-1.0
CCc1ccc(/C=N/NC(=O)c2cc(-c3cccc([N+](=O)[O-])c3)n[nH]2)cc1	-8.1	2.4	-9.1	16.1%	2.0	-2.4
Cc1c(C(=O)OCC(=O)N(C)C2CCS(=O)(=O)C2)oc2ccc(Br)cc12 (stereo not drawn)	11.4	-0.2	-0.4	2.2%	0.9	1.2
CCOC(=O)C1(Cc2ccccc2C)CCCN(C(=O)CCc2c(C)noc2C)C1 (stereo not drawn)	-0.8	-1.8	-1.0	1.6%	-1.1	2.4
C/C(=N\NC(=O)c1ccccc1OCCOc1ccccc1)c1ccccc1F	53.3	-4.5	-1.9	28.4%	5.7	3.2

An excerpt from above in order of molar mass, falling:
SMILES	TRPML1 blocker	D2 ag	Six1-Eya2 inh	PINK1 modulator	TRPML1 agonist	CtBP-E1A blk
C/C(=N\NC(=O)c1ccccc1OCCOc1ccccc1)c1ccccc1F	53.3	-4.5	-1.9	28.4%	5.7	3.2
CCc1ccc(/C=N/NC(=O)c2cc(-c3cccc([N+](=O)[O-])c3)n[nH]2)cc1	-8.1	2.4	-9.1	16.1%	2.0	-2.4
COc1cccc(C(C)(O)c2nc(-c3ccc(N(C)C)cc3)cs2)c1 (stereo not drawn)	x	5.0	u	7.5%	-0.5	u
Oc1oc(-c2cccc3ccccc23)nc1/C=N/c1nccs1	-8.5	-3.6	1.7	6.2%	18.1	1.5

Next structures follow.
SMILES	TRPML1 blocker	D2 ag	Six1-Eya2 inh	PINK1 modulator	TRPML1 agonist	CtBP-E1A blk
Cc1ccc(S(=O)(=O)[N-]c2nc3ccccc3nc2-[n+]2cc(C)cc(C)c2)cc1	-5.4	-1.5	0.9	0.9%	0.3	x
O=c1c2ccccc2nc(SCc2ccc([N+](=O)[O-])cc2)n1-c1ccc(Cl)cc1	10.5	-0.8	9.4	2.6%	1.9	-1.0
COc1ccc(C(=O)n2nc(-c3ccco3)nc2SC)cc1OC	78.2	-2.6	1.5	5.2%	-0.2	2.9
O=C(NCCN1CCN(C(=O)c2ccc(F)cc2)CC1)C(=O)NCc1ccccc1	4.4	-6.4	3.2	-0.4%	-0.6	10.2
Cc1ccc2c(=O)cc(C(=O)Nc3sc4c(c3C(=O)NCc3ccccc3)CCCC4)oc2c1C	-6.9	x	x	6.3%	0.4	x
Cc1nnc(NC(=O)CSc2nnc(CNC(=O)c3ccc(F)cc3)o2)s1	-3.6	-1.5	-19.2	-1.4%	-0.2	u
Cc1occc1-c1nnc(SCC(=O)NC2CCCC2)n1C	2.2	-2.5	-5.2	-1.5%	-0.3	0.9
O=C1/C(=C/c2cccnc2)CC/C1=C\c1cccnc1	4.0	2.3	0.0	5.0%	-1.2	0.8
O=C(O)CSCC(=O)N1CCCN(c2nc3ccc(Cl)cc3s2)CC1	-22.9	-1.6	3.3	1.7%	0.0	3.3
CCN(CC)S(=O)(=O)c1ccc(-c2csc(C)n2)cc1	25.6	-1.0	3.1	-1.4%	0.9	x
O=C(NCC1CCCO1)c1nc(Cn2ccc([N+](=O)[O-])n2)no1 (stereo not drawn)	-19.5	5.0	9.4	3.9%	-0.4	7.9
CC(C)C(=O)NC(=O)[C@@H]1CCCN1C(=O)/C=C/c1ccccc1	-8.8	2.2	3.0	-0.8%	-0.5	1.9
COC(=O)c1ccc2nc(-c3cccc(Cl)c3)c(Cc3cccc(Cl)c3)n2c1	x	x	4.9	-0.8%	-0.1	6.4
O=c1[nH]cnc2sc3c(c12)CCC3	-8.4	-2.5	-20.5	-1.6%	-0.3	-8.3
Nc1ccc(-n2nnnc2CN2CCOCC2)cc1	-2.6	2.1	4.7	-0.9%	-0.5	9.2
O=C(NCCN1CCOCC1)c1cc(-c2ccc(Cl)c(Cl)c2)on1	-7.7	-3.7	-0.8	2.3%	-0.4	-16.4
Cc1ccc(O)c(-c2cc(C(F)(F)F)[nH]n2)c1	-4.7	1.8	-2.0	7.9%	2.1	-0.6
